Source: PubChem BioAssay (National Center for Advancing Translational Sciences (NCATS))
HPGD inh = HPGD (human) dehydrogenase inhibition; P15428; purified HPGD, NADH fluorescence kinetic, PGE2 substrate; Potency, µM, for the others: at the top dose activity change, negative = inhibition, usual class: inhibitors; actives 4.3% (n = 150,000); AID 894; active = well fitted inhibition curve with a large enough effect (not every such curve was filed as active); inconclusive = small, poorly fitted or top-dose-only effect, or another doubt; inactive = no such curve, though single readings can be large or run the other way;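 further: top concentration of the series not given in the record; plate controls included wells without enzyme; inactives centre near -10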
Target sequence (P15428 whole entry, looked up): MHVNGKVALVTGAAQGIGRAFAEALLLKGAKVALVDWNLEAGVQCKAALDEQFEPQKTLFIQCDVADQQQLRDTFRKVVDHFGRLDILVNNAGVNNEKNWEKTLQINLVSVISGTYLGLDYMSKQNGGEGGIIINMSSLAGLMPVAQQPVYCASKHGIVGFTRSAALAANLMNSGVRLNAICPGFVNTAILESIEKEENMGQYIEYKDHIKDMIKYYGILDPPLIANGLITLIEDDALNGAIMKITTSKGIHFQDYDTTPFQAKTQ
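20 nM HPGD preincubated 15 min at room temperature with compound in 50 mM Tris-HCl pH 8, 0.01% Tween 20. Started with 1 mM NAD+ and 30 uM prostaglandin E2; NADH fluorescence (360/450 nm) read 5 times over 30-s intervals, last minus first.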
Active calls of the source: *; ? = inconclusive; & = joins results of further samples. On the % scale 0 is the no-effect control and ±100 the full control effect; potency means the concentration at half of the fitted maximal effect. Some of the compounds tested; count on the stated rates, not on these rows.

| HPGD inh | structure |
| --- | --- |
| -10.9% | Nc1nc2ccccc2[nH]1 |
| -12.4% | Cc1cccc(/C(N)=N/OC(=O)COc2ccc(Cl)c(C)c2)c1 |
| -6.9% | COC(=O)c1sc2ccccc2c1-n1cccc1C(=O)C(=O)Nc1ccc(Cl)cc1 |
| -7.7% | O=C(c1ccccc1)c1ccc(OCCCN2CCCC2)cc1 |
| -0.7% | C=CCNC(=O)NC(=O)COC(=O)c1ccccc1Sc1ccc(C(F)(F)F)cc1[N+](=O)[O-] |
| -26.9% | Cc1ccc(-n2nc(C)c3cc(C(=O)O)sc32)cc1 |
| -12.5% | Cc1ccc(-c2ccc(=O)n(CC(=O)N3CCN(c4cccc(C)c4)C(C)C3)n2)cc1 (stereo not given) |
| -9.1% | C/C(=N\N=C(N)N)c1ccc(Cl)cc1 |
| -11.1% | O=C(O)CC(C(=O)O)c1cn(Cc2ccccc2)c2ccccc12 (stereo not given) |
| -0.8% | CC(=O)c1nc(N2C(=O)CC(Cc3cc(C)cc(C)c3)C2=O)sc1C (stereo not given) |
| 31.6µM* | Cc1noc(/C=C/N(C)C)c1S(=O)(=O)N1CCCC(C(=O)NC(C)c2ccccc2)C1 (stereo not given) |
| ? | CC(=O)Oc1ccc(-c2cccc(C(=O)NCC(=O)O)c2)cc1 |
| -17.4% | C=CCc1cc(/C=N/n2cnnc2)cc(OCC)c1O |
| -10.7% | CCn1c(-c2nn(C)c(C)c2Cl)n[nH]c1=S |
| ? | CN(C)c1ncc2nc(-c3ccccc3)c(=O)n(C3CC3)c2n1 |
| -0.9% | COc1ccc(-n2nnnc2SCC(N)=O)cc1 |
| ? | Nc1c(C(=O)Nc2ccccc2F)sc2nc(-c3ccco3)ccc12 |
| 0.4% | CCOc1cc(C(=O)NC)cc(OCC)c1OCC |
| -4.9% | CC1CCc2cc(F)ccc2N1C(=O)c1cnc2sccn2c1=O (stereo not given) |
| -10.0% | CC(=O)c1cccc(S(=O)(=O)N2CCC(n3nnc4cc(F)ccc43)CC2)c1 |
| -20.7%&1.3%&-11.3%&-6.8% | Cc1ncc([N+](=O)[O-])n1CCO |
| -14.1% | S=C(Nc1ccc(Cl)cc1)c1nc2ccccc2s1 |
| -6.2% | Cc1ccnc(SCC(=O)n2c3c(c4ccccc42)CC(C)CC3)n1 (stereo not given) |
| -7.8% | O=C(c1ccccc1)N1CCN(C(=O)c2ccc([N+](=O)[O-])cc2)CC1 |
| 8.91µM* | O=C(CSc1ncnc2c1oc1ccccc12)NCc1ccco1 |
| -9.8% | CC(=O)Nc1ccc(S(=O)(=O)N[C@@H](C)C(=O)Nc2ccc(N3CCOCC3)cc2)cc1 |
| -6.6% | O=C(COC(=O)CCC1CCCC1)Nc1ccccc1Sc1ccccc1 |
| -7.1% | C=C1CCC(O)C/C1=C\C=C1/CCCC2(C)C1CCC2C(C)/C=C/C(C)C(C)C (stereo not given) |
| -0.3% | CCOC(=O)N1CCN(C2CC(=O)N(c3ccc(F)cc3)C2=O)CC1 (stereo not given) |
| ? | Cc1cc(-c2ccc(F)cc2)nc2cc(C(N)=O)nn12 |
| 0.3% | CCN(CC)C(=O)CSc1nnc(CCN)o1 |
| -14.3% | O=C(NCc1ccco1)C(C(=O)c1ccc(F)cc1)n1ccccc1=O (stereo not given) |
| -3.9% | O=C1C2C3C=CC(C3)C2C(=O)N1c1ccncc1 (stereo not given) |
| -19.8% | Cc1cccc(NC(=O)CC23CC4CC(C2)CC(n2nnc(C)n2)(C4)C3)c1 |
| ? | Cc1cccc(C(=O)N=c2c(C#N)cc3c(=O)n4cccc(C)c4nc3n2Cc2ccco2)c1 |
| -6.2% | CCCCC/C=C\C/C=C\C/C=C\C/C=C\CCCCCC(=O)NC(C)C(=O)O (stereo not given) |
| ? | CCC(=O)Nc1cc2c(C)cc(=O)oc2cc1C |
| -7.4% | COc1cc(C(=O)NCCC(=O)NCCN2CCOCC2)cc(OC)c1OC |
| -7.8% | O=C(OCC(O)C(O)COC(=O)c1ccccc1)c1ccccc1 (stereo not given) |
| 2.7% | Cc1ccc(C(C(=O)NC2CCCCC2)N(C(=O)c2csnn2)C2CCCC2)o1 (stereo not given) |
| -9.0% | Cc1ccc(-n2nc3ccc(NC(=O)c4ccc5c(c4)OCO5)cc3n2)cc1 |
| -3.0% | N/C(=N\OC(=O)c1ccc(Cl)cc1)c1cccnc1 |
| -5.7% | Cc1cc(C)nc(NS(=O)(=O)c2ccc(NC(=O)CN3C(=O)c4ccccc4C3=O)cc2)n1 |
| -2.7% | CCOc1cccc(OCCCNCCCOC)c1 |
| -21.9% | COc1cc2c(C(=O)N3CCN(c4cccc(Cl)c4)CC3)cn(C)c(=O)c2cc1OC |
| -9.7% | CC/C(=C(\c1ccccc1)c1ccc(OCCN(C)C)cc1)c1ccc(O)cc1 |
| -6.6% | COc1ccc(CCNC(=O)c2c(C)noc2C)cc1 |
| -4.1% | Cc1ccc(Nc2nc(CSc3nnc(-c4ccc(F)cc4)n3C)cs2)cc1 |
| -8.2% | Clc1ccc(/C=N/NC2=Nc3cccc4cccc2c34)cc1 |
| -13.7% | CCOc1ccccc1C1CC(=O)NC2=C1C(=O)CC(C)(C)C2 (stereo not given) |
| 6.6% | O=c1[nH]c(=O)n(C2CCCO2)cc1Br (stereo not given) |
| ? | COc1ccc(/C=C/C(=O)c2ccc(Cl)cc2)c(OC)c1 |
| -8.3% | CCN(CC)CCOC(=O)c1cccc(OC)c1 |
| -20.9% | Cc1cc2cc(CN(CC3CCCO3)C(=S)NCc3ccco3)c(=O)[nH]c2cc1C (stereo not given) |
| 4.4% | Cc1ccc(/C=C/C(=O)O)cc1S(=O)(=O)NCCCO |
| -17.1% | C/C(=C/C(=O)N1CCc2ccccc21)C(=O)O |
| -8.6% | Cc1ccc(C(=O)CNc2cccc(Cl)c2)cc1 |
| -10.0% | CC(=O)Nc1ccccc1C(=O)C(=O)Nc1ccccc1 |
| -16.3% | Cc1cc(Oc2ccccc2)nc(SCC(=O)Nc2ccc(Cl)cc2Cl)n1 |
| -4.7% | COc1ccccc1N1C(C)=CC(=C(C#N)c2nc3ccccc3s2)C=C1C |

Following part
| HPGD inh | structure |
| --- | --- |
| -1.9% | CC(C)CCNC(=O)CNC(=S)N(CCCN1CCOCC1)Cc1cccs1 |
| -5.9% | O=C(COc1ccc(Cl)cc1Cl)NCC(=O)N/N=C/c1c[nH]c2ccccc12 |
| -10.8% | O=C1CC(N2CCN(c3ccc(S(=O)(=O)N4CCCC4)cc3)CC2)C(=O)N1c1ccc(F)cc1 (stereo not given) |
| -9.6% | Cc1cccc(C)c1NC(=O)CN(C)C(=O)/C=C/c1cccs1 |
| -7.4% | Cc1nn(CC(=O)Nc2ccccc2)c(=O)c2ccccc12 |
| -2.3% | C1CCCC1 |
| -2.1% | [O-][N+]12CC[N+]([O-])(CC1)c1ccccc12 |
| -25.2% | Cc1cc(Cl)ccc1N(CC(=O)N=Nc1c(O)[nH]c2ccccc12)S(C)(=O)=O |
| -11.4% | CNC(=O)NC(=O)CSc1ccc(NC(C)=O)cc1 |
| ? | Cn1nc(-c2ccc(Cl)cc2)c2cc(C(=O)NCCCN3CCOCC3)sc21 |
| ? | Cc1ccc2cc(CN(CC(C)C)C(=O)C3CCCO3)c(=O)[nH]c2c1 (stereo not given) |
| -7.3% | CN(C)S(=O)(=O)c1ccc(C(=O)OCC(=O)c2ccc(OC(F)F)cc2OC(F)F)cc1 |
| -12.9% | Cc1ccccc1NC(=O)Cn1c(O)c(N=NC(=O)c2ccccc2O)c2ccccc21 |
| -2.8% | COc1ccccc1N1CCN(S(=O)(=O)c2ccc(-n3cnnn3)c(C)c2)CC1 |
| -0.6% | Cc1ccc(C(C)C)c(OCC(O)CN2CCN(CCO)CC2)c1 (stereo not given) |
| -14.6% | CCCS/C(N)=N/N=C/c1cc(C)ccc1O |
| -0.4% | CCOC(=O)c1oc2cc(C)cc(O)c2c(=O)c1-c1csc(C)n1 |
| -0.6% | CCC1=C(OC(=O)N(CC)CC)N2C(=O)OC(=NCC(=O)OC)[C@]2(C)[C@H]2C1=CC[C@H]1C(=O)N(CC)C(=O)[C@H]12 |
| -15.4% | Clc1c(CSc2nc3ccccc3o2)nc2ccccn12 |
| -4.2% | Cc1ccc(S(=O)(=O)/N=C(\CN2CCCCC2)N2CCOCC2)cc1 |
| ? | CC(C)c1ccc(OCc2cccc(C(=O)N/N=C/c3cccnc3)c2)cc1 |
| -28.3% | O=c1c2ccccc2oc2ncccc12 |
| -5.7% | Cc1ccc(F)cc1NC(=O)C1CCN(c2cnccn2)CC1 |
| -12.2% | Cc1ccc(-n2nnnc2SCn2nnc3ccccc3c2=O)c(C)c1 |
| -23.6% | COC(=O)CCCCCNc1ccc(C(=O)OC)cc1N |
| -26.1% | CCOc1ccc(-c2cc(N3C(=O)Nc4ccccc4N3O)on2)cc1 |
| -12.6% | COc1cccc(Nc2cc(C)nc3ccccc23)c1 |
| -8.5% | CC(=O)Oc1ccc(-c2ccc(C(=O)O)cc2)cc1 |
| -7.0% | O=C(NCCN1CCOCC1)c1ccc([N+](=O)[O-])cc1[N+](=O)[O-] |
| -21.9% | Cc1ccc(Cl)cc1N1CCN(C(=O)c2cc3c(=O)n(C)c4ccccc4c3n2C)CC1 |

Laid out differently: entries from further up.
molecule,HPGD inh
Cc1cccc(C)c1NC(=O)CN(C)C(=O)/C=C/c1cccs1,-9.6%
Cc1nn(CC(=O)Nc2ccccc2)c(=O)c2ccccc12,-7.4%
C1CCCC1,-2.3%
[O-][N+]12CC[N+]([O-])(CC1)c1ccccc12,-2.1%
Cc1cc(Cl)ccc1N(CC(=O)N=Nc1c(O)[nH]c2ccccc12)S(C)(=O)=O,-25.2%
CNC(=O)NC(=O)CSc1ccc(NC(C)=O)cc1,-11.4%
Cn1nc(-c2ccc(Cl)cc2)c2cc(C(=O)NCCCN3CCOCC3)sc21,?
Cc1ccc2cc(CN(CC(C)C)C(=O)C3CCCO3)c(=O)[nH]c2c1 (stereo not given),?
CN(C)S(=O)(=O)c1ccc(C(=O)OCC(=O)c2ccc(OC(F)F)cc2OC(F)F)cc1,-7.3%
Cc1ccccc1NC(=O)Cn1c(O)c(N=NC(=O)c2ccccc2O)c2ccccc21,-12.9%
COc1ccccc1N1CCN(S(=O)(=O)c2ccc(-n3cnnn3)c(C)c2)CC1,-2.8%
Cc1ccc(C(C)C)c(OCC(O)CN2CCN(CCO)CC2)c1 (stereo not given),-0.6%
CCCS/C(N)=N/N=C/c1cc(C)ccc1O,-14.6%
CCOC(=O)c1oc2cc(C)cc(O)c2c(=O)c1-c1csc(C)n1,-0.4%
CCC1=C(OC(=O)N(CC)CC)N2C(=O)OC(=NCC(=O)OC)[C@]2(C)[C@H]2C1=CC[C@H]1C(=O)N(CC)C(=O)[C@H]12,-0.6%
Clc1c(CSc2nc3ccccc3o2)nc2ccccn12,-15.4%
Cc1ccc(S(=O)(=O)/N=C(\CN2CCCCC2)N2CCOCC2)cc1,-4.2%
CC(C)c1ccc(OCc2cccc(C(=O)N/N=C/c3cccnc3)c2)cc1,?
O=c1c2ccccc2oc2ncccc12,-28.3%
Cc1ccc(F)cc1NC(=O)C1CCN(c2cnccn2)CC1,-5.7%
Cc1ccc(-n2nnnc2SCn2nnc3ccccc3c2=O)c(C)c1,-12.2%
COC(=O)CCCCCNc1ccc(C(=O)OC)cc1N,-23.6%
CCOc1ccc(-c2cc(N3C(=O)Nc4ccccc4N3O)on2)cc1,-26.1%
COc1cccc(Nc2cc(C)nc3ccccc23)c1,-12.6%

The list goes on.
| HPGD inh | structure |
| --- | --- |
| 1.1% | COCCCNCCOc1cc(C(C)C)ccc1C |
| 0.8% | COc1cc(C2NC(=O)NC(C)=C2C(=O)OC(C)(C)C)ccc1OCC(N)=O (stereo not given) |
| -0.4% | CCC(=O)Nc1nc(N)n(-c2ccccc2)n1 |
| -7.4% | COc1ccccc1N=Nc1[nH]c2ccc(C)cc2c1O |
| -0.4% | COc1ccc(C(=O)NNC(=O)c2cnccn2)cc1[N+](=O)[O-] |
| -6.2% | CCOc1ccc(C2C(C#N)=C(N)Oc3cc(C)n(Cc4ccco4)c(=O)c32)cc1OC (stereo not given) |
| -8.9% | C#CCCCCCCCCCCCC(=O)CC(O)COC(C)=O (stereo not given) |
| -27.4% | COc1ccc(/C=N/Nc2nc(NCc3ccco3)nc(Nc3ccc(OC)cc3)n2)cc1 |
| -9.0% | CC(=O)NS(=O)(=O)c1cccnc1Nc1cccc(Cl)c1C |
| -7.8% | Cc1cc(C)c2cc3c(ccn3C3OC[C@H](O)[C@H](O)[C@H]3O)cc2n1 (stereo not given in full) |
| ? | Nc1ccc(O)cc1C(=O)OCC(=O)C12CC3CC(CC(C3)C1)C2 |
| -16.3% | COC(=O)c1ccc(/C=N/NC(=O)CC(=O)NCC(C)C)cc1 |
| -0.4% | O=C(CSc1nnc(C2CC2)n1-c1ccccc1)Nc1ccc(N2CCOCC2)cc1 |
| -5.6% | CCN1CCCC1CNC(=O)c1ccccc1Cl (stereo not given) |
| -8.3% | c1nnc(NC2=NCCCCC2)s1 |

Five compounds picked at random from the list so far:
| HPGD inh | structure |
| --- | --- |
| -16.3% | COC(=O)c1ccc(/C=N/NC(=O)CC(=O)NCC(C)C)cc1 |
| 1.1% | COCCCNCCOc1cc(C(C)C)ccc1C |
| -27.4% | COc1ccc(/C=N/Nc2nc(NCc3ccco3)nc(Nc3ccc(OC)cc3)n2)cc1 |
| -7.4% | COc1ccccc1N=Nc1[nH]c2ccc(C)cc2c1O |
| -0.4% | COc1ccc(C(=O)NNC(=O)c2cnccn2)cc1[N+](=O)[O-] |

(more compounds)
| HPGD inh | structure |
| --- | --- |
| -23.2% | COc1cccc(CNc2ccc3c(c2)CCC3)c1 |
| -19.5% | Cc1cc2oc3c(c(=O)c2cc1C)C(c1ccc(C(C)C)cc1)N(CCCN1CCOCC1)C3=O (stereo not given) |
| -9.6% | Cc1ccc(C(C)n2cc(C(=O)NCCN3CCN(C)CC3)nn2)cc1 (stereo not given) |
| -6.3% | O=C(CSc1ccccc1)Nc1cccc(NC(=O)c2ccco2)c1 |
